Env fusion inh = blocks HIV Env-driven cell-cell fusion; HeLa-JRFL Env/CEM21 cell fusion, luciferase; 360,000 tested, 1.1% active; AID 651610; inhibition, % at 12.3 µM;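 active = mean replicate inhibition score of at least 50 and every replicate individually at or above 50; inconclusive = only one of the two criteria met; inactive = mean below 50 and not all replicates reaching 50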;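 note: 0% = plate neutral controls and 100% = maraviroc near 300 nM; one replicate is shown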
Active calls of the source: *; ? = inconclusive; [ ] = dose if it differs, or a comment. The list is partial; rates above refer to the full screens.

The opening 14 records, ahead of the listing:
SMILES	Env fusion inh
CCCCCCCCN1C(=O)[C@@H](CC(=O)NCc2ccccc2)C[C@@]2(C(=O)OC)C1=C[C@H](C1CCCC1)O[C@@H]2C	7
CC(C)c1ccc(Oc2cccc3c2S(=O)(=O)N([C@H](C)c2ccccc2)C[C@@H](COCc2ccccc2)O3)cc1	7
CCC(=O)N[C@H]1CC[C@@H](CC(=O)NCc2ccccc2F)O[C@@H]1CO	0[16.7 µM]
CN(C)c1ccc2c(c1)[C@H]1C[C@H](CC(=O)NCC3CC3)O[C@H](CO)[C@H]1O2	18[16.7 µM]
CO[C@@H]1CN(C)C(=O)c2cc(NC(=O)Nc3ccc(Cl)cc3)ccc2OC[C@H](C)N(C)C[C@H]1C	60*[16.7 µM]
CO[C@H]1CN(C)C(=O)c2cc(NC(=O)C3CCC3)ccc2OC[C@H](C)N(Cc2ccccn2)C[C@H]1C	2[16.7 µM]
COCCN1Cc2cc(C(=O)OC)c3c(c2C1=O)c1cc(OC)ccc1n3S(C)(=O)=O	17
C=CCN1C(=O)[C@@]2(O[C@@H](CCO)[C@H]([Si](C)(C)c3ccc(OC)cc3)[C@H]2C)c2ccccc21	44[16.7 µM]
C[C@H]1CN([C@@H](C)CO)C(=O)Cc2cc(N(C)C)ccc2O[C@@H]1CN(C)S(=O)(=O)c1ccccc1	-4[16.7 µM]
COC(=O)c1cc(=O)nc(NN=Cc2ccccc2O)s1	-25
C[C@H]1CN([C@@H](C)CO)C(=O)CCCn2cc(nn2)CO[C@H]1CN(C)Cc1cccc(O)c1	-10[16.7 µM]
O=C(C[C@@H]1CC[C@@H]2[C@H](COC[C@H](O)CN2Cc2cc(F)ccc2F)O1)NCc1ccc(Cl)cc1	18[16.7 µM]
C[C@@H]1CN([C@@H](C)CO)C(=O)CCCn2nncc2CO[C@@H]1CN(C)Cc1ccc(Oc2ccccc2)cc1	-3[16.7 µM]
O=C(C[C@H]1CC[C@H]2[C@@H](COC[C@@H](O)CN2C(=O)c2ccccc2)O1)NCCCN1CCOCC1	-8[16.7 µM]

Results, from the start:
SMILES	Env fusion inh
CCCCCCCCN1C(=O)[C@@H](CC(=O)NCc2ccccc2)C[C@@]2(C(=O)OC)C1=C[C@H](C1CCCC1)O[C@@H]2C	7
CC(C)c1ccc(Oc2cccc3c2S(=O)(=O)N([C@H](C)c2ccccc2)C[C@@H](COCc2ccccc2)O3)cc1	7
CCC(=O)N[C@H]1CC[C@@H](CC(=O)NCc2ccccc2F)O[C@@H]1CO	0[16.7 µM]
CN(C)c1ccc2c(c1)[C@H]1C[C@H](CC(=O)NCC3CC3)O[C@H](CO)[C@H]1O2	18[16.7 µM]
CO[C@@H]1CN(C)C(=O)c2cc(NC(=O)Nc3ccc(Cl)cc3)ccc2OC[C@H](C)N(C)C[C@H]1C	60*[16.7 µM]
CO[C@H]1CN(C)C(=O)c2cc(NC(=O)C3CCC3)ccc2OC[C@H](C)N(Cc2ccccn2)C[C@H]1C	2[16.7 µM]
COCCN1Cc2cc(C(=O)OC)c3c(c2C1=O)c1cc(OC)ccc1n3S(C)(=O)=O	17
C=CCN1C(=O)[C@@]2(O[C@@H](CCO)[C@H]([Si](C)(C)c3ccc(OC)cc3)[C@H]2C)c2ccccc21	44[16.7 µM]
C[C@H]1CN([C@@H](C)CO)C(=O)Cc2cc(N(C)C)ccc2O[C@@H]1CN(C)S(=O)(=O)c1ccccc1	-4[16.7 µM]
COC(=O)c1cc(=O)nc(NN=Cc2ccccc2O)s1	-25
C[C@H]1CN([C@@H](C)CO)C(=O)CCCn2cc(nn2)CO[C@H]1CN(C)Cc1cccc(O)c1	-10[16.7 µM]
O=C(C[C@@H]1CC[C@@H]2[C@H](COC[C@H](O)CN2Cc2cc(F)ccc2F)O1)NCc1ccc(Cl)cc1	18[16.7 µM]
C[C@@H]1CN([C@@H](C)CO)C(=O)CCCn2nncc2CO[C@@H]1CN(C)Cc1ccc(Oc2ccccc2)cc1	-3[16.7 µM]
O=C(C[C@H]1CC[C@H]2[C@@H](COC[C@@H](O)CN2C(=O)c2ccccc2)O1)NCCCN1CCOCC1	-8[16.7 µM]
C[C@@H]1CCCCO[C@@H](CN(C)Cc2ccncc2)[C@H](C)CN([C@H](C)CO)C(=O)c2cc(NC(=O)Nc3ccccc3)ccc2O1	-20[16.7 µM]
O=C(C1=C[C@@H](c2ccc3c(c2)OCO3)C[C@@H](OCc2ccc(CO)cc2)O1)N1CCCCCCC1	6[16.7 µM]
CO[C@@H]1CC[C@H]2CCN(C)C(=O)[C@@H](C)N(C)C(=O)c3cccc(C#N)c3OC[C@@H]1O2	24[16.7 µM]
C=CCCC1CN(Cc2ccc(OC)cc2)S(=O)(=O)c2c(cccc2N2CCCCC2)O1 (stereo not given)	-2
O=C(Nc1cc(F)ccc1F)N[C@@H]1CC[C@@H](CCn2cc(C3CC3)nn2)O[C@@H]1CO	6[16.7 µM]
COc1ccc(NC(=O)Nc2ccc3c(c2)C(=O)N(C)C[C@@H](OC)[C@H](C)CN[C@@H](C)CO3)cc1	1[16.7 µM]
CO[C@@H]1CN(C)C(=O)c2cc(NC(=O)C3CCOCC3)ccc2OC[C@@H](C)N(CC2CC2)C[C@H]1C	-12[16.7 µM]
C[C@@H]1CN([C@H](C)CO)C(=O)c2ccccc2-c2ccccc2CO[C@H]1CN(C)C(=O)Nc1ccc(F)cc1	?
Cc1noc(C)c1C(=O)N(C)C[C@H]1OCc2ccccc2-c2ccccc2C(=O)N([C@H](C)CO)C[C@@H]1C	13[16.7 µM]
COc1ccc2c3c(n(C)c2c1)[C@@H](CO)N(CC1CCOCC1)CC31CCN(Cc2nccs2)CC1	-38[16.7 µM]
CN(C)C(=O)c1ccc(-c2cccc(-c3nc(C(=O)NC4CCCCC4)cc4c3[C@H](CCO)N([S@@](=O)C(C)(C)C)C4)c2)cc1	-19[16.7 µM]

More compounds:
SMILES	Env fusion inh
COc1ccccc1CNC(=O)C[C@@H]1C[C@@H]2c3cc(NS(=O)(=O)c4ccc(F)cc4)ccc3O[C@@H]2[C@H](CO)O1	15[16.7 µM]
Nc1nc2c(ncn2[C@@H]2O[C@H](C(=O)NCCc3c[nH]c4ccccc34)[C@@H](O)[C@H]2O)c(=O)[nH]1	0
COC(=O)C1=C(C)N(Cc2ccc(Br)cc2)C(=S)NC1c1cccc(OC)c1 (stereo not given)	23
COC(=O)C1=C(C)N(C)C(=NCc2ccc(OC)cc2)NC1c1ccc(F)cc1 (stereo not given)	8
CO[C@@H]1CC[C@@H]2CCOc3c(C#N)cccc3C(=O)N(C)C[C@@H](C)C(=O)N(C)C[C@H]1O2	30[16.7 µM]
CN(C)CC(=O)Nc1ccc2c(c1)[C@@H]1C[C@H](CC(=O)NCc3cc(F)ccc3F)O[C@@H](CO)[C@@H]1O2	-4[16.7 µM]
CC(C)(C)S(=O)N1C[C@@H]2CC(=O)C(c3ccccc3)=C2[C@H]1CCO (stereo not given in full)	-25
O=C(C[C@@H]1CC[C@@H]2[C@H](COC[C@H](O)CN2Cc2cc(F)cc(F)c2)O1)Nc1nccs1	8[16.7 µM]
O=C(NCC[C@@H]1CC[C@@H](NS(=O)(=O)Cc2ccccc2)[C@@H](CO)O1)C1CCC1	-12[16.7 µM]
C[C@@H]1CN([C@@H](C)CO)C(=O)c2cccc(NS(=O)(=O)c3ccc(Cl)cc3)c2O[C@@H]1CN(C)S(=O)(=O)c1ccc(F)cc1	-2[16.7 µM]
CCC(=O)Nc1ccc2c(c1)OC[C@H](C)N(CC1CCCCC1)C[C@@H](C)[C@@H](OC)CN(C)C2=O	4[16.7 µM]
COc1ccc(CN(C)C[C@H]2OCCCC[C@H](C)Oc3ccc(NC(=O)C4CCCCC4)cc3C(=O)N([C@H](C)CO)C[C@@H]2C)cc1	-3[16.7 µM]
CN(C)C(=O)C[C@@H]1C[C@H]2c3cc(NC(=O)c4cccnc4)ccc3O[C@H]2[C@H](CO)O1	-28[16.7 µM]
O=C(C[C@H]1C=C[C@H](NC(=O)c2cccc(F)c2)[C@@H](CO)O1)Nc1nccs1	20[16.7 µM]
O=C1c2[nH]nc(-c3ccccc3)c2C(c2ccccc2)N1c1ccccc1 (stereo not given)	-19
CC=Cc1ccc2n(c1=O)C[C@H]1[C@H](CO)[C@@H](C(=O)NC3Cc4ccccc4C3)N(CC)[C@@H]21 (mixture of isomers)	9[16.7 µM]
CC(C)NC(=O)N(C)C[C@H]1OCCCC[C@@H](C)Oc2ccc(NC(=O)CCC(F)(F)F)cc2C(=O)N([C@@H](C)CO)C[C@H]1C	-7[16.7 µM]
COc1ccc(S(=O)(=O)N2CCCc3nc(-c4ccccc4)ccc32)cc1	14
CC(C)(C)c1ccc(C#C[C@@H]2C=C[C@@H](O)[C@@H](CO)O2)cc1	-4
COCC(=O)Nc1ccc2c(c1)OC[C@@H](C)N(Cc1cccc(F)c1)C[C@H](C)[C@H](OC)CN(C)C2=O	12[16.7 µM]
CO[C@H]1CN(C)C(=O)c2cc(NC(=O)c3ccccc3)ccc2OC[C@H](C)N(CC2CC2)C[C@@H]1C	-6[16.7 µM]
COCC(=O)N1[C@H](C(=O)N2CCOCC2)[C@@H](CO)[C@@H]2Cn3c(ccc(C4=CCCCC4)c3=O)[C@@H]21	4[16.7 µM]
CO[C@H]1CN(C)C(=O)c2cc(NC(=O)Nc3cc(F)ccc3F)ccc2OC[C@@H](C)N(C(=O)c2ccccn2)C[C@@H]1C	6[16.7 µM]
CCOC(=O)N(C)[C@H]1C[C@H]2c3[nH]c4c(-c5ccccc5)cccc4c3CCN2C(=O)[C@H]1[C@H](C)O	-7
C[C@H](O)C#Cc1cnc2c(c1)C(=O)N([C@@H](C)CO)C[C@@H](C)[C@H](CN(C)CC1CCOCC1)O2	3[16.7 µM]

Additional entries:
SMILES	Env fusion inh
CC(C)NC(=O)N(C)C[C@@H]1OCCCC[C@@H](C)Oc2ccc(NC(=O)c3ccncc3)cc2C(=O)N([C@H](C)CO)C[C@H]1C	3[16.7 µM]
CCNC(=O)[C@@H]1[C@@H](CO)[C@@H]2Cn3c(ccc(-c4cncnc4)c3=O)[C@@H]2N1Cc1ccc2c(c1)OCO2	7[16.7 µM]
CO[C@@H](C(=O)N(C)C[C@@H]1OCc2ccccc2-c2ccccc2C(=O)N([C@@H](C)CO)C[C@H]1C)c1ccccc1	-15[16.7 µM]
CC=Cc1ccc2n(c1=O)C[C@H]1[C@H](CO)[C@@H](C(=O)N(C)C)[C@@H]2N1CCc1ccccc1 (mixture of isomers)	16[16.7 µM]
C[C@@H]1CN([C@H](C)CO)C(=O)c2cc(NC(=O)C3CC3)ccc2O[C@H]1CN(C)C(=O)Nc1ccc(F)cc1	?
CN1C(=O)c2cc(NC(=O)Nc3ccccc3F)ccc2OC[C@@H]2O[C@H](CC(=O)NCCc3ccncc3)CC[C@@H]21	13[16.7 µM]
C[C@@H]1CN([C@H](C)CO)C(=O)c2cccc(NS(C)(=O)=O)c2O[C@@H]1CN(C)Cc1ccc2c(c1)OCO2	-2[16.7 µM]
COCCNC(=O)c1c(N)[nH]c(C(=O)c2ccc(Br)cc2)c1-c1ccc(Br)cc1	13
CCS(=O)(=O)Nc1ccc2c(c1)C(=O)N(C)C[C@H](OC)[C@@H](C)CN(C(=O)c1ccc3c(c1)OCO3)[C@@H](C)CO2	2[16.7 µM]
CS(=O)(=O)Nc1ccc2c(c1)[C@H]1C[C@H](CC(=O)NC3CCCC3)O[C@H](CO)[C@H]1O2	6[16.7 µM]
CO[C@@H]1CN(C)C(=O)c2ccc(NC(=O)c3ccccc3)cc2OC[C@H](C)N(C(=O)C2CC2)C[C@@H]1C	-5[16.7 µM]
C[C@@H]1CN([C@@H](C)CO)C(=O)CCCn2nncc2CO[C@@H]1CN(C)Cc1cccnc1	16[16.7 µM]
CS(=O)(=O)N1C[C@@H](O)COC[C@H]2O[C@H](CC(=O)NCCc3ccncc3)CC[C@@H]21	-8[16.7 µM]
CCS(=O)(=O)Nc1ccc2c(c1)C(=O)N(C)[C@H]1CC[C@@H](CC(=O)NCCOC)O[C@H]1CO2	-13[16.7 µM]
COc1cccc(C(=O)Nc2ccc3c(c2)C(=O)N(C)C[C@H](OC)[C@H](C)CN(C(C)=O)[C@@H](C)CO3)c1	1[16.7 µM]
C[C@@H]1CN([C@@H](C)CO)C(=O)c2cc(NS(C)(=O)=O)ccc2O[C@@H](C)CCCCO[C@@H]1CN(C)CC1CCCCC1	-2[16.7 µM]
CO[C@H](C(=O)N(C)C[C@H]1OCc2ccccc2-c2c(n(C)c3ccccc23)C(=O)N([C@@H](C)CO)C[C@@H]1C)c1ccccc1	-40[16.7 µM]
C[C@@H]1CN([C@@H](C)CO)C(=O)c2ccccc2-c2ccccc2CO[C@H]1CN(C)C(=O)[C@@H](Cc1ccccc1)N(C)C	-14[16.7 µM]
C[C@@H]1CN([C@@H](C)CO)C(=O)CCCn2nncc2CO[C@@H]1CN(C)Cc1ccc(-c2ccccc2)cc1	-8[16.7 µM]
CC(C)NC(=O)N(C)C[C@@H]1OCCCC[C@H](C)Oc2ccc(NC(=O)C3CCCCC3)cc2C(=O)N([C@@H](C)CO)C[C@H]1C	12[16.7 µM]
CCN=C1NC(CCc2ccccc2)C(C(=O)OC)=C(C)N1Cc1ccc(C(F)(F)F)cc1 (stereo not given)	6
Cc1ccc(C(=O)NC2CCCCN(C)C2=O)c(C)c1 (stereo not given)	1
C[C@H]1[C@H](c2ccccc2)Oc2cc(Br)ccc2S(=O)(=O)N1Cc1cccc(F)c1	14
CCCCOCC1CN(CCCC)S(=O)(=O)c2c(cccc2N2CCCCC2)O1 (stereo not given)	-38
Cc1ccc(S(=O)(=O)Nc2ccc3c(c2)C(=O)N([C@@H](C)CO)C[C@H](C)[C@H](CN(C)S(=O)(=O)c2ccc(F)cc2)O3)cc1	6[16.7 µM]
O=C(C[C@H]1CC[C@H](NC(=O)C2CCOCC2)[C@H](CO)O1)NCc1ccccc1Cl	12[16.7 µM]
CC(C)(C)S(=O)(=O)N1C[C@@H]2CC(=O)C=C2[C@H]1CCO	4
Cc1ccc(S(=O)(=O)N2CCCc3nc(C)c(C)cc32)cc1	-2

2 entries drawn at random from the list so far, as already listed:
SMILES	Env fusion inh
C[C@@H]1CN([C@@H](C)CO)C(=O)c2cc(NS(C)(=O)=O)ccc2O[C@@H](C)CCCCO[C@@H]1CN(C)CC1CCCCC1	-2[16.7 µM]
CS(=O)(=O)Nc1ccc2c(c1)[C@H]1C[C@H](CC(=O)NC3CCCC3)O[C@H](CO)[C@H]1O2	6[16.7 µM]

Screens from PubChem.
